Assay outcomes as filed in PubChem.
HepG2 viability: HepG2 cell cytotoxicity, dose response, cytotoxicity control, ATP luminescence, cherry-pick, activator set 2 (AID 1053143); HepG2 viability, CellTiter-Glo ATP luminescence, 72 h; AC50 in µM for hits, for the others activity change, negative = cytotoxicity, % at the top dose, mostly 26 µM; hit rate 3.7% among 3,400;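 active means fitted AC50 at most twice the highest valid dose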;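 further: 0 = neutral control and -100 = positive control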
The depositor's hits bear a star; [ ] = dose if it differs, or a comment. An excerpt; the hit share may differ from the screen's.

SMILES	HepG2 viability
Cn1cccc1/C=C1\CCC/C(=C\c2cccn2C)C1=O	-18%
Cc1ccc(NC(=O)c2ccc(OC(=O)CCN3C(=O)c4ccccc4C3=O)cc2)cc1	-9%[12 µM]
COc1cccc(/C=C/c2ccccn2)c1O	3%
O=C(O)c1ccc(COc2ccc3c(c2)CCC3)cc1	62%
COc1ccc(C(=O)Nc2ccccc2C(=O)NCc2ccco2)cc1OC	-14%
COc1ccc(NC(=O)c2cc3ccccc3o2)cn1	-1%
CCCCOc1ccc(-c2ncc([N+](=O)[O-])cn2)cc1	-4%
COc1ccc(C(=O)N/N=C/C(=O)c2ccccc2)cc1	-3%
COc1cc(C(=O)Nc2ccc(NC(=O)C3CC3)nc2)cc(OC)c1OC	-8%
O=C(CSc1nnc(-c2ccncc2)o1)Nc1cc(F)ccc1F	-5%[12 µM]
Cc1cc(C)c2c(N)c(C(=O)Nc3nccs3)sc2n1	-17%
CCOC(=O)c1cnn(-c2ccccc2)c1NC(=O)c1ccccc1C	-5%

Rewritten with bars between the fields: entries from further up
Compound | HepG2 viability
Cn1cccc1/C=C1\CCC/C(=C\c2cccn2C)C1=O | -18%
Cc1ccc(NC(=O)c2ccc(OC(=O)CCN3C(=O)c4ccccc4C3=O)cc2)cc1 | -9%[12 µM]
COc1cccc(/C=C/c2ccccn2)c1O | 3%

Three entries from above, sorted by molecular weight, ascending:
SMILES	HepG2 viability
Cc1cc(C)c2c(N)c(C(=O)Nc3nccs3)sc2n1	-17%
COc1cc(C(=O)Nc2ccc(NC(=O)C3CC3)nc2)cc(OC)c1OC	-8%
Cc1ccc(NC(=O)c2ccc(OC(=O)CCN3C(=O)c4ccccc4C3=O)cc2)cc1	-9%[12 µM]
